Mtb hypoxia rep: reduces hypoxia-regulated biosensor signal in M. tuberculosis; M. tuberculosis hypoxia-regulated fluorescent reporter, fluorescence; fluorescence inhibition, % (no concentration beside the values); 300,000 compounds, 0.1% hits;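 active = 35 to 45% if threefold the growth effect, above 45% if 1.5-fold the growth effect; inactive = the rest, general growth blockers included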;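 note: wells of about 50 µL received 100 nL stock; 0% = vehicle wells and 100% = reference inhibitor wells; whole bacteria with a GFP reporter of the hypoxia response; strong numbers were not always called active; many hits fall short of the cut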
PrP 5UTR inh: inhibition of PrP 5' UTR reporter expression; cell-based PrP 5' UTR mRNA reporter, plate reader; inhibition, % (concentration not given with the values); 340,000 compounds, 0.35% hits; AID 488862;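 active = every replicate at 50% or more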;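 note: 0 = median of the neutral control wells; tested in H4 reporter cells; numbers are from one replicate; inactives centre near -14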
RN4220 kill: kills Staphylococcus aureus RN4220 | inhibition, % (concentration not given with the values) | 330,000 compounds, 0.33% hits | AID 1259311 | S. aureus RN4220 growth, OD600, 16 h;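 active = z-score of -3 or lower and OD600 up to 0.18 on both plates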;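 note: plate controls were untreated cells for no effect and reference antibiotic for full effect; stock transfer was 100 nL into about 80 µL; one replicate is shown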
Autofluor counter: compound fluorescence in toxin protease inhibitor counterscreen | compound autofluorescence counterscreen, microsphere flow cytometry; stronger effect = higher value | fluorescence intensity (test concentration not listed) | 360,000 compounds, 3.1% hits;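 active = at least 3 SD above the mean of all compounds, about 16000 in these data; inconclusive = too few beads counted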;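 note: 100 nL of 1 mM stock went into each well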
ugtP null kill: kills S. aureus RN4220 lacking UgtP; S. aureus RN4220 ugtP deletion, OD600 growth, 16 h; some inactives read as strong as hits; growth inhibition, % (test concentration not listed); 330,000 compounds, 0.54% hits;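 active = z-score under -3 and OD600 up to 0.15 on both plates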;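 note: plate controls were untreated wells for no effect and antibiotic for full effect; wells of about 80 µL received 100 nL stock; the first replicate is given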
BJeLR lethal: kills HRASV12-expressing BJeLR cells. BJeLR (HRASV12) viability, CellTiter-Glo ATP luminescence, 48 h; reference of the scale not given here. inhibition, % (test concentration not listed). 300,000 compounds, 0.17% hits;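 active = replicate mean above 50%; inconclusive = above 50% but judged a plate artefact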;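 note: 50 nL library stock added to about 25 µL; numbers are from one replicate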
Mtb hypoxia rep growth: second read-out of Mtb hypoxia rep, no call of its own (marks repeat the call); growth inhibition, %; measured here: M. tuberculosis growth (absorbance);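 0% = vehicle and 100% = reference antibiotic; read after six days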
* = called active by the depositor; ? = inconclusive; nt = not tested or not shown.

SMILES	Mtb hypoxia rep	Mtb hypoxia rep growth	PrP 5UTR inh	RN4220 kill	Autofluor counter	ugtP null kill	BJeLR lethal
Cc1cc(NC(=O)CN2CCCC(C)C2)n(-c2nc3ccccc3s2)n1 (stereo not given)	-2	5	-11	0.5	2457	2	-3
O=C(Cc1nnc(NC(=O)Nc2ccccc2F)s1)NCc1ccccc1	4	3	nt	4.4	6145	4	0
Cc1c(C(=O)N2CCN(C/C=C/c3ccccc3)CC2)oc2c(F)cccc12	8	0	-10	-2.9	4407	10	nt
O=C(CN1C(=O)NC2(CCCCC2)C1=O)N1CCN(S(=O)(=O)/C=C/c2ccccc2)CC1	9	1	-12	0.6	3848	2	-9
Cc1cc(NC(=O)c2ccccc2)ccc1NC(=O)Cc1ccccc1	16	6	-7	7.5	3203	7	-7
O=C(NCCc1ccccn1)c1cc(-c2ccccc2Cl)nc2ccccc12	18	7	-25	1.1	2532	0	4
CCOC(=O)c1sc2nc(C)nc(SCC(=O)NC(C)CCc3ccccc3)c2c1C (stereo not given)	12	2	-12	3.8	2038	7	-4
CSc1nc(NCCOCCO)c2sc3nc(-c4ccco4)c4c(c3c2n1)CCC4	nt	nt	-20	1.1	4103	-10	-3
COc1ccc(CC(=O)NC(C)c2nnc(SCC(=O)Nc3nc(C)cs3)n2C)cc1 (stereo not given)	6	4	-9	6.5	4308	16	-1
O=C(CN1CCCc2ccccc21)NC(=O)NC1CCCCC1	-3	2	-35	7.6	5041	0	-1
CCCCOc1ccc(C(C)=O)cc1Cc1c(O)[nH]c(=S)[nH]c1=O	3	-9	-20	3.0	3357	14	3
COc1ccc(/C=C(\C#N)C(=O)OCC(=O)N2CC(C)OC(C)C2)cc1 (stereo not given)	12	11	15	2.7	3569	4	7
Cc1ccc(NC(N)=S)cc1	6	17	-7	5.0	1952	6	7
Cc1nc(NC(=O)C23CCC(C)(C(=O)O2)C3(C)C)sc1C (stereo not given)	nt	nt	-5	8.7	5011	1	6
COc1ccc(OC)c(/C=N/NC(=S)NCCc2ccccc2)c1	nt	nt	-31	nt	3823	nt	-1
Cn1c(SCC(=O)Nc2ccc(F)cc2F)nnc1-c1cccnc1	nt	nt	-10	0.9	4718	12	1
CCOC(=O)COc1ccc(/C=C2/C(=O)NN(c3ccc(F)cc3)C2=O)cc1OC	-5	-9	2	0.2	nt	5	-10
Cc1ccsc1C=NNC(=O)C(=O)NCC(C)C	-3	0	nt	5.9	nt	7	nt
Cc1ccc(C)c(S(=O)(=O)N2CCN(CC(=O)Nc3cc(C)on3)CC2)c1	11	4	-54	2.0	2857	6	-6
CC(C(=O)Nc1sc2c(c1C(=O)NCC1CCCO1)CCC2)N1C(=O)c2ccccc2C1=O (stereo not given)	11	3	-7	2.9	2201	3	-1

Five entries drawn at random from those above, as already listed:
SMILES	Mtb hypoxia rep	Mtb hypoxia rep growth	PrP 5UTR inh	RN4220 kill	Autofluor counter	ugtP null kill	BJeLR lethal
Cc1ccc(NC(N)=S)cc1	6	17	-7	5.0	1952	6	7
CC(C(=O)Nc1sc2c(c1C(=O)NCC1CCCO1)CCC2)N1C(=O)c2ccccc2C1=O (stereo not given)	11	3	-7	2.9	2201	3	-1
O=C(CN1CCCc2ccccc21)NC(=O)NC1CCCCC1	-3	2	-35	7.6	5041	0	-1
Cc1cc(NC(=O)CN2CCCC(C)C2)n(-c2nc3ccccc3s2)n1 (stereo not given)	-2	5	-11	0.5	2457	2	-3
O=C(Cc1nnc(NC(=O)Nc2ccccc2F)s1)NCc1ccccc1	4	3	nt	4.4	6145	4	0

(next part)
SMILES	Mtb hypoxia rep	Mtb hypoxia rep growth	PrP 5UTR inh	RN4220 kill	Autofluor counter	ugtP null kill	BJeLR lethal
CC(C)CC(CN1C(N)=NCC1C)NC(=O)CC12CC3CC(CC(C3)C1)C2 (stereo not given)	6	3	nt	3.3	nt	3	nt
O=C(OCc1ccc([N+](=O)[O-])cc1Cl)c1cnccn1	0	2	-16	6.6	3031	11	-4
CC(=O)Cc1nsc(NC(=O)c2ccccc2Cl)n1	-15	-11	9	-2.6	3289	-10	nt
O=C1C2C3C=CC(O3)C2C(=O)N1N=Cc1ccc2c(c1)OCO2 (stereo not given)	5	6	-54	7.3	3705	7	nt
CC(NC(=O)COC(=O)c1cc(=O)[nH]c2ccccc12)c1ccccc1 (stereo not given)	10	-1	-22	3.4	4518	9	-5
Cc1ccc2c(c1)N(C(=O)CCC(=O)NCCCN1CC(C)CC(C)C1)CCO2 (stereo not given)	4	3	-8	2.9	5828	-3	2
Cc1ccc2c(CSc3nc4ccccc4c(=O)n3CCCO)cc(=O)oc2c1C	nt	nt	-3	3.3	2771	-22	3
COc1cc(C=Nn2cnnc2)ccc1OCC(=O)N1CCOCC1	-5	-2	nt	6.4	nt	6	nt
O=C(CC1Sc2ccccc2NC1=O)NNc1cccc(Cl)c1Cl (stereo not given)	-4	-7	-24	3.0	3712	-12	nt
CCCCNC(=O)c1ccccc1SCC(=O)NC1CCCCCCC1	8	3	-5	1.9	4027	4	nt
Cc1occc1-c1nnc(SCC(=O)NC2CCCC2)n1-c1ccccc1	nt	nt	-24	1.8	2998	-1	2
CC1=NN(C(C#N)c2ccccc2C)C(c2ccccc2)C1 (stereo not given)	-7	2	-19	5.5	3685	3	-1
COc1ccc(NC(=O)COC(=O)c2ccc(O)cc2)c([N+](=O)[O-])c1	5	5	-20	5.8	3324	8	4
CC(C)(C)C1CCC2(CC1)C(C#N)=C(SCC(=O)NC1CCCCC1)NC(=O)C2C#N (stereo not given)	1	2	-15	-1.5	7931	1	6
COc1ccc(-c2cn[nH]c2-c2ccc(OC)cc2)cc1	-3	5	12	-1.2	3543	14	-8
Brc1ccc(-c2cn3ccccc3n2)s1	nt	nt	-7	5.9	2924	0	3
CCN1CCOC(CC(=O)Nc2ccc([N+](=O)[O-])cc2)C1=O (stereo not given)	-4	-5	-11	9.0	4205	6	-2
Cc1ccc(C)c(NC(=S)NCc2ccccc2)c1	10	15	-10	0.3	3697	1	-12
COc1ccc(-c2noc(N3CCC(C(=O)NCCCN4CCC(C)CC4)CC3)n2)cc1	-1	2	-12	3.5	5889	-1	23
CCc1ccc(CNC(=O)CCC(=O)N2Cc3cccc(OC)c3Oc3ncccc32)cc1	4	4	-42	1.0	4939	3	5

Of the compounds above, these contain an aryl thioether with sulfur outside any ring.
SMILES	Mtb hypoxia rep	Mtb hypoxia rep growth	PrP 5UTR inh	RN4220 kill	Autofluor counter	ugtP null kill	BJeLR lethal
CCOC(=O)c1sc2nc(C)nc(SCC(=O)NC(C)CCc3ccccc3)c2c1C (stereo not given)	12	2	-12	3.8	2038	7	-4
CSc1nc(NCCOCCO)c2sc3nc(-c4ccco4)c4c(c3c2n1)CCC4	nt	nt	-20	1.1	4103	-10	-3
COc1ccc(CC(=O)NC(C)c2nnc(SCC(=O)Nc3nc(C)cs3)n2C)cc1 (stereo not given)	6	4	-9	6.5	4308	16	-1
Cn1c(SCC(=O)Nc2ccc(F)cc2F)nnc1-c1cccnc1	nt	nt	-10	0.9	4718	12	1
Cc1ccc2c(CSc3nc4ccccc4c(=O)n3CCCO)cc(=O)oc2c1C	nt	nt	-3	3.3	2771	-22	3
CCCCNC(=O)c1ccccc1SCC(=O)NC1CCCCCCC1	8	3	-5	1.9	4027	4	nt
Cc1occc1-c1nnc(SCC(=O)NC2CCCC2)n1-c1ccccc1	nt	nt	-24	1.8	2998	-1	2

Remaining list, next part:
SMILES	Mtb hypoxia rep	Mtb hypoxia rep growth	PrP 5UTR inh	RN4220 kill	Autofluor counter	ugtP null kill	BJeLR lethal
CCOc1cc(/C=C2\SC(=S)N(N3CCOCC3)C2=O)ccc1O	4	5	-6	1.0	4315	4	11
C=CCN1C(=NC(=O)COc2ccc(Cl)cc2)SC2CS(=O)(=O)CC21 (stereo not given)	3	-1	-2	0.8	5071	2	6
CC1CC(C)CN(c2ccc(-n3cnnn3)cc2[N+](=O)[O-])C1 (stereo not given)	11	1	-4	7.3	2661	-17	6
Clc1ccc(/C=C/c2nc3ccccc3[nH]2)cc1	7	14	13	25	?	-17	16
CN(CC(=O)Nc1ccccc1Cl)C(=O)c1cc(C2CC2)nn1-c1ccccc1	-3	3	4	2.2	4157	5	nt
CN(C)S(=O)(=O)c1ccc(S(=O)(=O)N2CCN(CCC#N)CC2)cc1	nt	nt	4	1.6	4408	-1	-8
CC1(C)CC[C@]2(C(=O)OC3OC(CO)C(O)C(O)C3O)CC[C@]3(C)C(=CCC4[C@@]5(C)CCC(OC6OC(C(=O)O)C(OC7OCC(O)C(O)C7O)C(O)C6O)C(C)(C)C5CC[C@]43C)C2C1 (stereo not given in full)	-1	4	nt	2.7	nt	1	nt
CCOC(=O)N1CCN(/C=C(\C#N)c2nc3ccccc3s2)CC1	-6	7	-6	5.3	nt	-8	-6
CCOC(=O)C1(c2ccccc2)NC(c2ccccc2C)C2C(=O)N(c3ccc4c(c3)OCO4)C(=O)C21 (stereo not given)	-7	-9	-10	-4.7	3334	-10	1
c1ccc2c(c1)CCN(C1CCCCC1)C2	15	-1	-28	4.3	nt	6	1
O=C(COC(=O)/C=C/c1cccc(Br)c1)NCCC1=CCCCC1	3	-5	-11	4.3	2509	0	-3
COc1cc(CNCc2ccccn2)ccc1OCc1ccccc1Cl	19	11	-5	3.9	1794	-4	-17
CC(C)NC(=O)CN1CCC(c2nc3ccccc3[nH]2)CC1	4	11	-10	1.4	5344	5	0
Cc1ccc(NC(=O)CCN2C(=O)c3cccc4cccc(c34)C2=O)cc1	-4	-1	-18	2.9	2639	12	-2
CCOC(=O)c1c(S(=O)(=O)NCc2ccc(C)o2)c(C)n(C)c1C	-17	-9	7	2.8	5759	-1	6
Cc1ccc(S(=O)(=O)N2CCC(C(=O)OCC(=O)N(C)C3CCCCC3)CC2)cc1C	3	-1	-5	1.1	6007	9	2
COc1ccc(-n2c(SCC(=O)N3CCOCC3)nc(O)c(Cc3ccccc3)c2=O)cc1	-19	2	-16	3.3	3352	-7	-18
CC(=O)c1c(COC(=O)c2ccccc2Cl)nc2ccccc2[n+]1[O-]	5	6	-25	5.2	3208	3	4
Nc1nonc1C(=O)NCCNCc1ccccc1OCc1ccc(F)cc1	1	17	nt	0.8	11387	-1	1
O=C(O)CN1C(=O)/C(=C\c2cn(-c3ccccc3)nc2-c2ccccc2)SC1=S	nt	nt	-23	nt	5210	nt	-1
O=C(NC1CN2CCC1CC2)c1cc(Cl)c([N+](=O)[O-])c2nc[nH]c12 (stereo not given)	-12	0	-19	8.9	2647	2	-7
COc1ccc(NC(=O)C2C3CCC(O3)C2C(=O)O)cc1OC (stereo not given)	9	15	-11	1.1	3810	6	-6
N#Cc1sc2nc(-c3ccccc3)cc(C(F)(F)F)c2c1N	0	5	6	3.3	4539	-5	-1
Cn1c(=O)c(Cc2ccccc2)c(O)c2ccccc21	8	7	nt	0.3	7886	8	2
O=C(Nc1ccccc1)/C(=C\c1cccs1)NC(=O)c1ccccc1	-7	-4	-8	11	7079	-7	6
COc1ccc(CC(=O)OCC(=O)NC2CCCCC2)cc1	2	8	nt	-1.7	?	0	nt
Cc1c(C(=O)O)oc2c1C(=NO)CCC2	11	0	nt	3.3	nt	6	nt
COc1cccc(-c2cc(C(F)(F)F)nc(N3CCC(C)CC3)n2)c1	-2	-9	-7	-1.6	4546	94*	-6

Single entries from above.
For Autofluor counter, O=C(NC1CN2CCC1CC2)c1cc(Cl)c([N+](=O)[O-])c2nc[nH]c12 (stereo not given) is listed with 2647
For ugtP null kill, COc1ccc(CC(=O)OCC(=O)NC2CCCCC2)cc1 is listed with 0

Compound activity as filed in PubChem BioAssay.
